# Sa ugtP lethal: compounds lethal to S. aureus RN4220 ugtP deletion mutant; AID 1259309; growth inhibition, % (no concentration beside the values); 330,000 compounds, 0.54% hits; OD600 growth, 16 h; some inactives read as strong as hits;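 active = z-score under -3 and OD600 up to 0.15 on both plates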;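 note: plate controls were untreated wells for no effect and antibiotic for full effect; wells of about 80 µL received 100 nL stock; the first replicate is given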
# PrP UTR inh: inhibition of PrP 5' UTR reporter expression; 340,000 compounds, 0.35% hits; cell-based PrP 5' UTR mRNA reporter, plate reader; inhibition, % (concentration not given with the values);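 active = every replicate at 50% or more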;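 note: 0 = median of the neutral control wells; tested in H4 reporter cells; numbers are from one replicate; inactives centre near -14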
# RN4220 kill: S. aureus RN4220 growth inhibition. 330,000 compounds, 0.33% hits. OD600, 16 h. inhibition, % (no concentration beside the values);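 active = z-score of -3 or lower and OD600 up to 0.18 on both plates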;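 note: plate controls were untreated cells for no effect and reference antibiotic for full effect; stock transfer was 100 nL into about 80 µL; one replicate is shown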
# Mtb hypoxia inh: reduces hypoxia-regulated biosensor signal in M. tuberculosis; M. tuberculosis hypoxia-regulated fluorescent reporter, fluorescence; fluorescence inhibition, % (concentration not given with the values); 300,000 compounds, 0.1% hits; AID 1159583;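 active = 35 to 45% if threefold the growth effect, above 45% if 1.5-fold the growth effect; inactive = the rest, general growth blockers included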;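 note: wells of about 50 µL received 100 nL stock; 0% = vehicle wells and 100% = reference inhibitor wells; whole bacteria with a GFP reporter of the hypoxia response; strong numbers were not always called active; many hits fall short of the cut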
# Autofluor counter: compound fluorescence in toxin protease inhibitor counterscreen; compound autofluorescence counterscreen, microsphere flow cytometry; stronger effect = higher value; fluorescence intensity (concentration not given with the values); 360,000 compounds, 3.1% hits;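 active = at least 3 SD above the mean of all compounds, about 16000 in these data; inconclusive = too few beads counted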;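 note: 100 nL of 1 mM stock went into each well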
# BJeLR viability: kills HRASV12-expressing BJeLR cells; BJeLR (HRASV12) viability, CellTiter-Glo ATP luminescence, 48 h; reference of the scale not given here; inhibition, % (no concentration beside the values); 300,000 compounds, 0.17% hits; AID 1554;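 active = replicate mean above 50%; inconclusive = above 50% but judged a plate artefact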;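 note: 50 nL library stock added to about 25 µL; numbers are from one replicate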
# Mtb hypoxia inh growth: further read-out of Mtb hypoxia inh, marked with its call; growth inhibition, %; measured here: M. tuberculosis growth (absorbance);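 0% = vehicle and 100% = reference antibiotic; read after six days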
# Active calls of the source: *; ? = inconclusive; · = no result given.
structure	Sa ugtP lethal	PrP UTR inh	RN4220 kill	Mtb hypoxia inh	Mtb hypoxia inh growth	Autofluor counter	BJeLR viability
O=C(CN1C(=O)NC2(CCCCC2)C1=O)N1CCc2ccccc2C1	6	-12	3.1	6	6	4379	0
CCn1ncc(/C=C/C(=O)NCc2cn(C)nc2C)c1C	4	-31	0.2	-1	-3	11486	4
CC(=O)C1=C(O)C(=O)N(CCc2c[nH]c3ccccc23)C1c1cccc(O)c1 (stereo not drawn)	8	-14	1.3	-20	5	3272	-10
Cc1ccc(S(=O)(=O)N2CCOC2CNC(=O)C(=O)NCc2ccc3c(c2)OCO3)cc1 (stereo not drawn)	-2	-29	0.3	4	-1	6522	0
O=S(=O)(NCCc1csc(-c2cccnc2)n1)c1cc(F)ccc1F	6	-1	1.3	-2	2	6511	0
O=[N+]([O-])c1cccc(-c2ccc(CN3CCCCC3)o2)c1	5	-13	1.3	15	8	3345	-5
CCOCC(=O)N1CCC(Cc2ccccc2)CC1	0	-17	4.0	6	6	4096	-10
CCCCC[C@H]1CN(Cc2ccccc2)C(=O)[C@@H]1CC(=O)NCc1ccc(OC)cc1	·	0	·	·	·	3846	2
COc1cc(C=Nn2cnnc2)ccc1Oc1nc(Cl)ncc1F	6	·	13	13	6	·	·
O=c1[nH]ncc2c3ccccc3n(Cc3cccc(Cl)c3)c12	·	-3	·	·	·	4406	-8
O=C1c2cccc3c(O)ccc(c23)C(=O)N1Cc1ccco1	16	-6	6.5	-23	9	4687	-2
O=C(O)c1cccc(Nc2ncnc3ccccc23)c1	1	-8	0.6	3	-1	8097	4
CCC(C(=O)Nc1cccnc1)c1ccccc1 (stereo not drawn)	7	-13	5.0	9	10	3250	20
CN(CCC#N)C(=O)COC(=O)/C=C/c1cccs1	5	-5	2.8	4	2	2574	13
Cc1ccc(C(=O)CSc2nc(C)cc(=O)[nH]2)cc1	-12	-20	-3.4	-1	-2	6231	2

# (cont.)
structure	Sa ugtP lethal	PrP UTR inh	RN4220 kill	Mtb hypoxia inh	Mtb hypoxia inh growth	Autofluor counter	BJeLR viability
COC(=O)c1cccc(C23CC4(C2)[C@H](CN(Cc2cccnc2)[C@@H]4c2ccccc2)C3c2ccc(Cl)nc2)c1 (stereo partly drawn)	·	-1	·	·	·	3741	-10
COC(=O)c1cc2c([nH]c1=O)CCCC2=O	6	-4	0.1	-3	-3	3373	·
CC(=NCCc1ccccc1)C1=C(O)C(c2ccccc2)OC1=O (stereo not drawn)	14	-13	4.5	14	1	3856	0
CSc1ccccc1OCc1cc(C(=O)N(C)Cc2ccc3nsnc3c2)no1	-7	-84	2.3	8	4	5335	-5
COc1ccc(S(=O)(=O)N2CCCN(C)CC2)cc1	18	-18	0.5	4	6	4026	-1
O=C(Nc1ccccc1C(=O)NN=Cc1ccco1)c1ccc(F)cc1	16	·	9.3	-1	4	·	·
COc1ccc(-c2cc(C(F)(F)F)c(C#N)c(SCC(=O)O)n2)cc1OC	6	·	4.6	6	15	·	-2
CCOC(=O)c1cc(-c2ccccc2C)nn1Cc1cc(C)no1	-11	-16	7.4	15	13	4291	·
Cc1sc2ncnc(OCC(=O)N3CCN(S(=O)(=O)c4ccccc4)CC3)c2c1C	5	-29	-2.5	-4	1	2982	-4
Cc1ccc(S(=O)(=O)c2nc(S(C)(=O)=O)sc2N2CC(C)OC(C)C2)cc1 (stereo not drawn)	4	-14	1.6	7	7	5892	-2
CC(c1nnc(Sc2nnnn2-c2ccccc2)n1-c1ccc(F)cc1)N(C)C (stereo not drawn)	-1	-15	-0.1	-8	5	4367	-2
O=c1c2cc(Cl)ccc2[nH]c(=S)n1Cc1ccccn1	1	-22	-6.5	-9	-17	2820	-17
CN(C)S(=O)(=O)c1ccc(-c2csc(-c3cccnc3)n2)cc1	9	-25	4.7	5	18	3314	1
O=C(CC1CS(=O)(=O)CC1CC(=O)Oc1ccccc1F)Oc1ccccc1F (stereo not drawn)	6	-15	6.1	7	6	2531	-1
CC(O)c1nc2ccccc2n1C/C=C/c1ccccc1 (stereo not drawn)	-13	-25	6.8	1	8	10433	5

# Following part.
structure	Sa ugtP lethal	PrP UTR inh	RN4220 kill	Mtb hypoxia inh	Mtb hypoxia inh growth	Autofluor counter	BJeLR viability
Cn1c(=O)n(C)c2cc(/C=N/NC(=O)c3ccc(Cl)cc3Cl)ccc21	·	-23	·	·	·	4795	-8
C=CCn1c(-c2csc3c2CCC(C)C3)n[nH]c1=S (stereo not drawn)	-1	-12	4.6	4	6	2447	10
CSCC[C@H](NC(=O)OC(C)(C)C)C(=O)N/N=C/c1cc2ccc(C)cc2nc1Cl	·	-17	·	·	·	2201	5
O=C(COc1ncnc2sccc12)Nc1cccc(S(=O)(=O)N2CCCC2)c1	-1	-15	-1.0	3	-1	4791	-4
CC1=NN(c2ccccc2)C(=O)/C1=C/c1cccs1	-2	-1	2.5	1	1	2428	12
Cc1ccc(NC(N)=S)cc1C	6	-12	2.9	12	13	2027	1
Cc1cc(C)nc(NS(=O)(=O)c2ccc(NC(=O)c3cc4c(=O)n5cccc(C)c5nc4n3C)cc2)n1	-14	-21	0.9	4	15	5402	1
COc1ccccc1OCCCCN1CCCCC1	8	-27	4.5	3	-2	·	4
CC(C)(C)NCCOc1ccc2ccccc2c1	-3	-28	-6.8	1	-2	4468	3
COC(=O)c1ccccc1NC(=O)c1ccc(COc2cc(C)cc(C)c2)o1	-22	-26	-8.2	3	2	·	-4
Cc1c(C(=O)OCC(=O)NCc2ccco2)oc2ccccc12	-4	-11	-4.3	-7	-6	5795	·
CC(C(=O)OCC(=O)N1CCCCC1)N1C(=O)c2ccccc2C1=O (stereo not drawn)	0	-22	0.0	4	8	5607	·
Cc1ccc(NC(=O)CCC(=O)OCC(=O)c2ccc(Oc3ccc([N+](=O)[O-])cc3)cc2)cc1C	4	-13	7.7	2	16	6303	-7
COc1ccccc1N(C)S(=O)(=O)c1ccc(C(=O)OCC(=O)N(C)c2ccccc2)cc1	-7	-12	1.6	-11	-8	2226	-3
COc1cc(C(C)=NNC(=O)Cc2c(C)[nH][nH]c2=O)ccc1O	7	·	-0.1	2	-12	·	·

# Other results.
structure	Sa ugtP lethal	PrP UTR inh	RN4220 kill	Mtb hypoxia inh	Mtb hypoxia inh growth	Autofluor counter	BJeLR viability
COc1cc(C2C(C(=O)c3cc4ccccc4o3)=C(O)C(=O)N2CCN2CCOCC2)ccc1OCCC(C)C (stereo not drawn)	5	-22	3.7	1	5	5953	-5
CCOC(=O)c1nn(-c2ccccc2)c(=O)cc1OCC(=O)Nc1cc(C)ccc1OC	1	-16	6.5	1	-4	5622	-6
CCOC(=O)c1sc2nc(CC(=O)OC)nc(NCC(=O)OC)c2c1C	0	-25	0.6	2	-3	8888	-2
CC(C)(C)n1nnnc1C(c1cccs1)N1CCCc2ccccc21 (stereo not drawn)	2	-14	-12	9	9	3300	1
CCN(C(=O)c1ccc2c(=O)n3c(nc2c1)CCCCC3)c1ccccc1C	-2	-9	2.1	9	-2	5583	-4
CCOc1cc(CNc2ccc(S(N)(=O)=O)cc2)cc(Cl)c1OC	2	-6	2.2	1	1	1957	16
Cc1sc2nc(C(C)C)nc(SCC(=O)N3CCOCC3)c2c1C	2	-14	3.7	10	5	4398	-2
CCOC(=O)Cc1csc(NC(=O)/C=C\c2ccccc2Cl)n1	-8	-34	1.7	-7	3	4647	-8
O=C(CNC(=O)c1cccs1)NN=Cc1ccc(Cl)cc1	3	·	0.5	4	16	·	·
Cc1cccc(N2C(=O)CCC2=O)c1	-1	-7	6.1	3	11	3398	3
CCCn1c(-c2nonc2N)nc2ccccc21	13	-5	9.2	-84	-16	3814	-6
Cc1c(C(=O)NCCC2=CCCCC2)cccc1[N+](=O)[O-]	-6	-41	3.3	7	12	3015	-10
CCN(CC)C(=S)SCC(=O)Nc1nc(-c2ccccc2)c(-c2ccccc2)o1	5	8	-1.2	14	3	2097	7
CC(C)=CCN1CCN(Cc2coc3ccc(C)cc3c2=O)CC1CCO (stereo not drawn)	2	-2	6.3	-5	-1	4739	0
CCOc1ccc(OCCCN(C)C)cc1	3	-7	6.9	6	8	4831	0

# Going on with the list:
structure	Sa ugtP lethal	PrP UTR inh	RN4220 kill	Mtb hypoxia inh	Mtb hypoxia inh growth	Autofluor counter	BJeLR viability
O=C1c2ccccc2C(Nc2ccc3c(c2)OCCO3)N1c1ccccn1 (stereo not drawn)	-10	-15	-1.3	·	·	4468	-2
COc1ccc(S(=O)(=O)Nc2ccc3c(c2)CC(=O)N(C(C)CO)CC(C)C(CN(C)S(=O)(=O)c2ccc(F)cc2)O3)cc1 (stereo not drawn)	-14	·	3.3	0	9	·	·
CCCCOc1ccc(CSC(=N)N)cc1[N+](=O)[O-]	14	-24	-5.5	·	·	2600	1
COc1ccc(NC(=O)CC2C(=O)NC3CCCCC3N2C(=O)c2ccc(F)cc2)cc1 (stereo not drawn)	1	2	-0.9	13	4	4031	-10
CCCCNC(=O)C1CCN(Cc2ccc(OCc3ccccc3)c(OC)c2)CC1	0	-19	0.7	4	2	·	-2
COC(=O)c1ccc(C(=O)Nc2ccc(F)cc2)cc1	1	-64	6.6	18	9	3672	·
CC(Cc1ccsc1)NCc1cn[nH]c1-c1ccc(F)cc1F (stereo not drawn)	3	-14	5.3	-20	-1	6607	6
COc1ccc(S(=O)(=O)NC(C)C)cc1C(=O)N1CCOCC1	3	-2	1.5	-5	-9	4229	-1
O=[N+]([O-])c1ccccc1S(=O)(=O)Nc1ccc(S(=O)(=O)Nc2nccs2)cc1	95*	2	-3.1	66*	41*	3370	-4
CC(Cc1c[nH]c2ccccc12)C(=O)N1CCN(c2ccccc2F)CC1 (stereo not drawn)	-9	-5	4.2	-10	7	3519	-5
Cc1ccc(S(=O)(=O)CCC(=O)OCC(=O)c2c[nH]c3ccccc23)cc1	7	-7	4.5	6	4	2473	-4
Brc1ccc(/C=N/Nc2nc3ccccc3o2)cc1	·	-64	·	·	·	3578	6
CCC(=O)c1ccc(OCC(=O)NCC2COc3ccccc3O2)cc1 (stereo not drawn)	18	2	-0.7	4	0	8246	·
Nc1nonc1-n1nnc(C(=O)N/N=C/c2ccncc2)c1CSc1ccc(Cl)cc1	·	-4	·	·	·	5272	2
O=C(CN1CCN(Cc2ccccc2)CC1)Nc1ccc(F)c(F)c1	2	-33	1.5	11	8	3795	3

# Compound profiles (already shown). Screens in order: Sa ugtP lethal	PrP UTR inh	RN4220 kill	Mtb hypoxia inh	Mtb hypoxia inh growth	Autofluor counter	BJeLR viability
# Listed for Cc1ccc(NC(N)=S)cc1C → 6	-12	2.9	12	13	2027	1
# Listed for O=S(=O)(NCCc1csc(-c2cccnc2)n1)c1cc(F)ccc1F → 6	-1	1.3	-2	2	6511	0
# Listed for Cn1c(=O)n(C)c2cc(/C=N/NC(=O)c3ccc(Cl)cc3Cl)ccc21 → ·	-23	·	·	·	4795	-8

# Next structures follow.
structure	Sa ugtP lethal	PrP UTR inh	RN4220 kill	Mtb hypoxia inh	Mtb hypoxia inh growth	Autofluor counter	BJeLR viability
O=C(Nc1cc(Cl)ccc1Oc1ccccc1)C1=COCCO1	-7	7	-1.6	-1	14	?	0
O=C(N/C(=C/c1ccc([N+](=O)[O-])cc1)C(=O)N1CCCC1)c1ccccc1	-3	-30	2.1	19	9	4216	-5
COc1ccc(O)c(/C=N/Nc2nc(C)cc(-c3ccccc3)n2)c1	·	-8	·	·	·	6134	-4
CCOP(=O)(OCC)C1NC(=O)N(c2ccccc2)C1=O (stereo not drawn)	1	-17	0.6	4	-4	3918	3
COc1cc(/C=N/NC(=O)CSCc2ccc([N+](=O)[O-])cc2)cc(OC)c1OC	·	-10	·	·	·	3832	-1
CCNC(=S)Nn1cnc2ccccc21	1	-8	3.2	10	-6	3347	-3
CC(C)NC(=O)c1nc2ccccc2s1	-8	-36	1.0	13	26	19111*	11
O=C(NCc1cnn(-c2ccccc2)c1)C1CCC(=O)N(C2CC2)C1 (stereo not drawn)	-4	-9	1.4	0	-5	6058	0
CCOC(=O)C1=C(CC)OC(N)=C(C#N)C1c1ccsc1 (stereo not drawn)	15	-23	5.3	14	8	2439	-4
CC(=O)c1ccc(NC(=O)CSC2=NS(=O)(=O)c3cc(Cl)ccc3N2)cc1	15	-37	5.9	4	6	4680	-1

# Rewritten with values under each structure: entries from further up
# Second line of a record – Sa ugtP lethal, PrP UTR inh, RN4220 kill, Mtb hypoxia inh, Mtb hypoxia inh growth, Autofluor counter, BJeLR viability
CCOC(=O)C1=C(CC)OC(N)=C(C#N)C1c1ccsc1 (stereo not drawn)
    15, -23, 5.3, 14, 8, 2439, -4
CC(=O)c1ccc(NC(=O)CSC2=NS(=O)(=O)c3cc(Cl)ccc3N2)cc1
    15, -37, 5.9, 4, 6, 4680, -1
